Assay outcomes deposited in PubChem by several laboratories.
HSV replic up – increases HSV replication in cells. HSV replication augmentation in cells, fold increase. maximum fold increase. hit rate 0.005% among 220,000. AID 1956;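 active = peak rise of 1.5-fold or more in the series; inconclusive = self-fluorescent or not available for retest; tested in PC3 cells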;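 note: first round at 10 µM; read as green reporter fluorescence; hits show the peak of a series up to 25 µM; 1 = signal of infected wells without compound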
RGS16-Gao – modulates binding between human RGS16 and Galphao. bead-based flow cytometry RGS16-Galphao binding, fluorescence; actives lie on both sides. binding response (% of control), % at 10 µM. hit rate 0.38% among 220,000. AID 1441;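 active = below 25% or above 175%, edge rows of some plates excepted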;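 note: Galphao activated by GDP with aluminum fluoride before binding; 100% = wells without compound and 0% = beads without RGS; some results beyond the cut were filed as inactive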
GALR2 ag – activates the human galanin receptor 2. O43603. GALR2-expressing cells, agonist activation read-out. activation, %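 (tested at 5 µM)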. hit rate 0.48% among 140,000;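 active = above mean plus 3 SD of all compounds, about 5% in these data, not always enough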;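 note: 0% = vehicle buffer wells and 100% = reference agonist at full effect; tested in CHO reporter cells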
INS promoter inh – TRM-6 insulin promoter activity inhibition; AID 1273; TRM-6 cells (human fetal islet line), insulin promoter-eGFP reporter, imaging; reporter expression induced with tamoxifen; inhibition, % at 2 µM; hit rate 0.9% among 130,000;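 active = inhibition above the mean plus 3 SD, with well images judged a real hit on visual review, cut at about 60% in these data, passing the limit was not always enough; inconclusive = inhibition over the cutoff but images rejected on review; inactive = inhibition not above the cutoff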
PKD1 inh – inhibitors of human PKD1 kinase | hit rate 0.056% among 200,000 | inhibition, %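 (about 10 µM by stock and volumes)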 | AID 797 | PKD1 kinase fluorescence polarization assay;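 active = inhibition of 50% or more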;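 note: controls were vehicle for no effect and a reference inhibitor for full effect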
Target sequence (Q15139 whole entry, looked up): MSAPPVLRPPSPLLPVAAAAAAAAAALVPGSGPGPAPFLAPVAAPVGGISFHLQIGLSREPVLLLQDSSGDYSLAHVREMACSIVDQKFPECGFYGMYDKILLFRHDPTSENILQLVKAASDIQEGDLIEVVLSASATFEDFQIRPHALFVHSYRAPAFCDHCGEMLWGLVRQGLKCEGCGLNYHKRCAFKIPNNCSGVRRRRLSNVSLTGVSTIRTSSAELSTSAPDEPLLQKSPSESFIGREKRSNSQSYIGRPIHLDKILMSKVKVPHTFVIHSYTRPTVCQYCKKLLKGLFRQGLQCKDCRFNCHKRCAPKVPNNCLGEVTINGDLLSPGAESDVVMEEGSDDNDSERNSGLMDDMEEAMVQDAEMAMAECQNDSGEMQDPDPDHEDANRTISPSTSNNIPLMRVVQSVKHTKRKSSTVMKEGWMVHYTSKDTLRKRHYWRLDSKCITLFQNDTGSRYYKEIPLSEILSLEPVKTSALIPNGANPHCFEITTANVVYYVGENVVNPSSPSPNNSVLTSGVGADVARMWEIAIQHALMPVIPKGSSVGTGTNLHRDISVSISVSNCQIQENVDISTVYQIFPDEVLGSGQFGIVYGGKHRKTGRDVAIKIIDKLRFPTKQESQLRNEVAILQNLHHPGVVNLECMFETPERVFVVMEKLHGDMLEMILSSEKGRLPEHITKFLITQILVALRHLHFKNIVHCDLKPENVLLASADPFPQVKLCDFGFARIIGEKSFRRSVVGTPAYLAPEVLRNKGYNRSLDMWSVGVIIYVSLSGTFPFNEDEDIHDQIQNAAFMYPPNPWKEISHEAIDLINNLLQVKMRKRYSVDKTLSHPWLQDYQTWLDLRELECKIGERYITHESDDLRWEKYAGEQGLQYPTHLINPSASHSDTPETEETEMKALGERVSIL
INS promoter inh cell count – second read-out of INS promoter inh, no call of its own (marks repeat the call); normalized cell count, %; measured here: cell count, toxicity; reference of the scale not given here;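 cells exposed to compound for 48 h; stained nuclei by imaging scaled within each plate; lower means fewer cells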
HSV replic up primary fold – further read-out of HSV replic up, marked with its call; fold increase; compound at 10 µM; measured here: primary screen fold increase 10 uM; tested in PC3 cells;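 GFP signal in the first replicate; 1 = infected wells without compound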
Active calls of the source: *; i = inactive; ? = inconclusive; · = no result given.

SMILES	HSV replic up	HSV replic up primary fold	RGS16-Gao	GALR2 ag	INS promoter inh	INS promoter inh cell count	PKD1 inh
O=C(NCCc1ccccc1)C1CCC(CNS(=O)(=O)c2cccs2)CC1 (centres undefined)	i	0.92	98	·	11	113	1
Cc1nc2ccccn2c1/C(O)=C1\C(=O)C(=O)N(CCN2CCOCC2)C1c1cccnc1 (centres undefined)	i	1	151	-1.3	-15	90	2
Cc1ccc(-n2c(C)cc(C(=O)CSc3n[nH]c(N)n3)c2C)cc1	i	0.95	102	-1.2	-7	101	6
Cc1ccc(SCCC(=O)N2CCC(C(N)=O)CC2)cc1	i	0.97	97	0.8	-117	195	-5
Cn1ncc2c(N3CCN(c4ccc(Cl)c(Cl)c4)CC3)ncnc21	i	0.89	97	·	·	·	-2
N#Cc1cccc(NC(=O)CN2NS(=O)(=O)c3ccccc3C2=O)c1	i	1	111	-2.3	39	112	-1
CC(C)[C@H](NC(=O)c1ccco1)C(=O)OCC(=O)Nc1ccc(F)cc1	i	0.91	99	·	·	·	-5
CCOC(=O)C1(C)C=C(Nc2ccc(OCC)cc2)C(=O)N1c1ccccc1 (centres undefined)	i	1	38	-0.2	·	·	-2
N#CC(c1ccccc1)c1ccc(C(=O)c2ccc(F)cc2)cc1 (centres undefined)	i	1	92	-3.1	-3	97	-4
Cc1cc2ccccc2n1CCNC(=O)c1ccc(S(=O)(=O)N2CCOCC2)cc1	i	0.98	105	-1.2	-33	137	-11
Cc1csc(NC(=O)c2cccc(S(=O)(=O)N3CCCCC3)c2)n1	i	0.93	105	-1.7	0	92	-6
CCc1ccc(NC(=O)CSc2nnc(SCC(=O)Nc3ccc(CC)cc3)n2N)cc1	i	0.96	113	-1.5	-27	116	-8
CC(C)n1c(SCC(=O)N2c3ccccc3Sc3ccccc32)nc2c1c(=O)n(C)c(=O)n2C	i	0.93	93	-3.4	·	·	-1
COc1ccc(C/C(C)=N/Nc2nc(C)cc(=O)[nH]2)cc1	i	0.97	100	·	-50	93	-6
CCOC(=O)c1cnc(-c2ccccc2)nc1N1CC(C)OC(C)C1 (centres undefined)	i	0.92	106	·	·	·	0
C=CCNC(=O)c1cc(Cl)ccc1Cl	i	0.99	103	-1.2	36	127	-2
O=C(N/N=C/c1cn(-c2ccccc2)nc1-c1cccs1)c1ccc(Cl)cc1	i	0.79	110	0.5	-33	47	-9
COc1ccccc1CC(=O)Nc1ccc([N+](=O)[O-])cc1OC	i	0.84	96	-1.2	15	141	-9
CC(C)=CC/C=C1\CCC(C(=O)O)C(C(=O)O)C1 (centres undefined)	i	0.77	42	0.9	-22	209	-2
CC(=O)c1cccc(N(C(=O)CNC(=O)c2ccco2)C(C(=O)NC2CCCC2)c2ccc(C)o2)c1 (centres undefined)	i	0.97	102	·	-14	65	-7
CCCCn1c(NC(=O)c2ccccc2Cl)c(C#N)c2nc3ccccc3nc21	?	·	101	7.3*	55	85	-10
CN(CC(=O)Nc1cccc(C#N)c1)Cc1ccc(Cl)cc1	i	1	100	·	·	·	5
CCOCCSC1=C(C#N)C(c2cccs2)C(C(C)=O)=C(C)N1 (centres undefined)	i	0.94	101	-0.4	-81	100	-1
CCOC(=O)c1ccc(-c2ccc(/C=C(\C#N)C(=O)NCc3cccs3)o2)cc1	i	1	104	9.3*	·	·	-10
COC(=O)c1[nH]nc2c1C(=O)N(Cc1ccccc1)C2=O	i	0.88	102	-3.2	·	·	-13
COc1ccccc1Oc1ccc(NC(=O)c2ccccc2)cc1	i	0.96	96	·	·	·	2
COC(=O)c1cccc(S(=O)(=O)N2CCCC2)c1	i	0.96	55	0.7	20	105	-5
COCCN(Cc1nc(-c2ccc(C(F)(F)F)cc2)no1)C(C)C	i	1.2	99	·	·	·	-4
Cc1ccc(N2C(=O)CSC2c2cccs2)cc1 (centres undefined)	i	1.1	100	-1.9	·	·	3
N#Cc1cc([N+](=O)[O-])ccc1NC(=O)COC(=O)C12CC3CC(CC(C3)C1)C2	i	0.92	102	·	·	·	-2
Cc1n[nH]c(C)c1Sc1ccccc1[N+](=O)[O-]	i	0.95	104	·	18	184	-5
COCCOc1ccc(C(F)(F)F)cc1NC(=O)c1ccc(C(F)(F)F)cc1	i	1	101	-0.9	·	·	-5
CCc1cccc(CC)c1NC(=O)/C(C#N)=C/c1ccccc1C(F)(F)F	i	0.67	103	-0.8	·	·	6
CN(C)c1nc(N)nc(CSc2nnnn2-c2ccc(C(=O)O)cc2)n1	i	1	99	-4.1	·	·	-4
CCC(C(=O)N1CCN(c2ncccn2)CC1)c1ccccc1 (centres undefined)	i	0.87	97	·	·	·	·
Cc1occc1C(=O)Nc1cccc([N+](=O)[O-])c1	i	1.1	99	-0.4	-7	137	-7

Exported with each value named: 2 of the compounds above
CC(=O)c1cccc(N(C(=O)CNC(=O)c2ccco2)C(C(=O)NC2CCCC2)c2ccc(C)o2)c1 (centres undefined)
  HSV replic up: i	HSV replic up primary fold: 0.97	RGS16-Gao: 102	GALR2 ag: ·	INS promoter inh: -14	INS promoter inh cell count: 65	PKD1 inh: -7
CCCCn1c(NC(=O)c2ccccc2Cl)c(C#N)c2nc3ccccc3nc21
  HSV replic up: ?	HSV replic up primary fold: ·	RGS16-Gao: 101	GALR2 ag: 7.3*	INS promoter inh: 55	INS promoter inh cell count: 85	PKD1 inh: -10

More compounds
SMILES	HSV replic up	HSV replic up primary fold	RGS16-Gao	GALR2 ag	INS promoter inh	INS promoter inh cell count	PKD1 inh
O=C(CSc1ccccn1)Nc1nncs1	i	1.1	62	-1.3	-12	87	-4
Fc1ccc(-c2nc3n(n2)Cc2ccccc2-3)cc1	i	0.94	92	-3.5	64	106	6
CCC(NC(=O)Nc1ncccc1C)(C(F)(F)F)C(F)(F)F	i	1	132	-0.8	-67	88	-13
Cc1cc(C(=O)COc2ccc([N+](=O)[O-])cc2)c(C)n1C1CC1	i	1.1	108	·	·	·	·
Cc1nc2ccccc2nc1OCC(=O)N1CCN(c2ccccc2)CC1	i	1	108	-1.8	-52	111	2
CCOC(=O)C1C(C(=O)OCC)C1(c1ccccc1)c1ccccc1 (centres undefined)	i	0.96	99	-0.6	-10	106	-4
Cc1ccc(C(=O)Nc2ccccc2C(=O)N2CCOCC2)cc1[N+](=O)[O-]	i	0.99	97	0.7	-24	77	3
C[C@@H]1NC(=O)[C@H](CCC(=O)O)NC(=O)c2cc([N+](=O)[O-])cc(F)c2NCCC[C@@H](C(N)=O)NC1=O	i	0.93	99	-1.3	-77	140	-13
CC(C)C(=O)Nc1nc2c(ncn2C2CC(O)C(CO)O2)c(=O)[nH]1 (centres undefined)	i	0.96	99	-0.9	·	·	11
O=C(Nc1ccccc1)N1CCN(c2nc(-c3ccccc3)ns2)CC1	i	1.1	100	·	·	·	·
CCc1nc2ccccc2n(CCOCCOCCn2c(=O)c(CC)nc3ccccc32)c1=O	i	0.82	102	-1.3	·	·	-12
O=C(Cc1c[nH]c2ccccc12)N/N=C/c1ccccc1O	i	0.95	101	·	·	·	·
Cn1c(=O)oc2cc(S(=O)(=O)N3CCC(N4CCCCC4)CC3)ccc21	i	0.92	93	·	·	·	3
C/C(=N\NC(=S)Nc1cccc(C)c1)c1cccc(N)c1	i	1	93	-1.1	10	100	5
NC(=S)N/N=C/c1coc2ccc(Cl)cc2c1=O	i	0.93	105	·	·	·	-4
COc1ccccc1N=Nc1nc(-c2ccccc2)c(-c2ccccc2)[nH]1	i	0.94	101	4.5	-7	157	-7
CN(c1ccccc1)S(=O)(=O)c1ccc(C(=O)NCC2CCCO2)cc1 (centres undefined)	i	1.1	110	-3.4	-26	81	-8
O=C(CCCNS(=O)(=O)c1cccs1)N1CCN(c2ccc(F)cc2)CC1	i	0.91	102	-1.6	4	130	-7
N#Cc1ccccc1S(=O)(=O)N1CCN(c2cnccn2)CC1	i	0.89	101	·	·	·	-5
COc1cccc(C2C(C(=O)c3ccc(C)o3)=C(O)C(=O)N2CCCN(C)C)c1 (centres undefined)	·	·	·	-2.7	8	62	-8
CC(C)c1ccc(/C=C2\C(=O)N(CCN3CCOCC3)C(=S)N2C)cc1	i	0.91	98	·	·	·	-2
O=C(NNC(=O)c1cccnc1)Nc1cccc(Cl)c1Cl	i	1	96	-1.4	53	119	6
O=C(CN1CCCC1)OCCCc1ccccc1	i	0.96	99	0.7	-44	133	-5
Clc1ccccc1-c1nc(N/N=C/c2cccnc2)c2ccccc2n1	i	0.86	93	-0.1	57	140	7
COc1ccc(N2CCN(C(=O)CCCCCn3c(=O)[nH]c4ccsc4c3=O)CC2)cc1	i	0.96	82	·	-33	64	-3
CC(=O)c1ccc(N(C(=O)c2csnn2)C(C(=O)NC(C)(C)C)c2cccs2)cc1 (centres undefined)	i	1	109	·	·	·	-1
CCN(CC)C(=O)CN(c1ccc(Cl)cc1)S(=O)(=O)c1ccccc1	i	0.95	101	-1.3	11	122	10
CCOc1ccc(OCC)c(NC(=O)c2ccc(CNc3c(N4CCCC4)c(=O)c3=O)cc2)c1	i	0.94	100	·	·	·	·
COc1cc(C(=O)OCC2CC(c3ccccc3)=NO2)cc(OC)c1OC (centres undefined)	i	0.96	100	·	·	·	0
COc1ccc(-n2c(C)c([N+](=O)[O-])c3ccc(O)c(CN4CCCCC4)c32)cc1	i	0.89	-307	-3.7	-10	95	0
Cc1cc(C)c2nc(C(F)(F)F)nc(NCCCN3CCOCC3)c2c1	i	0.68	95	0.5	-34	203	7
O=C(/C=C/c1ccco1)Oc1ccc(C(=S)N2CCOCC2)cc1	i	1	82	·	47	109	1
O=C(Nc1ccc(Cc2ccncc2)cc1)C1CCC(N2C(=O)C3C4C=CC(C5CC45)C3C2=O)CC1 (centres undefined)	i	0.83	103	-0.8	28	135	-9
CC(C)(C)OC(=O)N1CCC[C@H]1c1nnc(SCc2cccc(Cl)c2)o1	i	1.2	100	·	·	·	·
CC1CCCCC1NC(=O)COC(=O)c1cc(=O)c2ccccc2o1 (centres undefined)	i	0.84	105	·	58	102	5
Cn1nc(-c2ccccc2)c(N2CCCCC2)cc1=O	i	0.98	97	·	·	·	-5
O=C(Nc1nnc(C(F)(F)F)s1)C1COc2ccccc2O1 (centres undefined)	i	0.77	103	-2.1	-79	118	0
CCOc1[nH]n(-c2ccccc2)c(=O)c1C=Nc1ccccc1	i	0.75	98	·	·	·	-10
CSc1c(SCc2ccccc2)cnn(Cc2ccccc2)c1=O	i	0.88	97	-0.7	31	137	-3
O=c1cc(-c2ccccc2)nc(SCc2ccccc2)[nH]1	i	1.1	98	-1.4	37	116	0
Cc1cc(N/C=C\c2nnnn2-c2ccc(F)cc2)no1	i	0.8	104	-0.8	25	103	-10
c1ccc(Cn2nnnc2C(c2cccnc2)N2CCN(c3ccccc3)CC2)cc1 (centres undefined)	i	0.8	105	-2.2	·	·	4
CN(C)Cc1c(-c2ccc(Cl)cc2)nc2ccccn12	i	0.95	92	·	·	·	-1
COc1ccc(NC(=O)c2cccnc2)c([N+](=O)[O-])c1	i	0.81	78	·	-7	69	-7
Cc1cc(=O)[nH]c(SCCCOc2ccc3c(c2)CCC3)n1	i	1.1	92	-1.4	30	111	-5
CC(C)Nc1ccc(C(CC(N)=O)NC(=O)Cc2ccc(Cl)cc2)cc1[N+](=O)[O-] (centres undefined)	i	0.61	86	·	·	·	·
O=C(CNC1CCCCC1)NCC1(c2ccccc2)CCCC1	i	0.94	107	·	-40	131	1
Cc1cc(C(=O)CSc2cccc[n+]2[O-])c(C)n1-c1ccc(OC(F)F)cc1	i	0.98	106	·	·	·	·

Among those listed so far, three contain a COOH group:
SMILES	HSV replic up	HSV replic up primary fold	RGS16-Gao	GALR2 ag	INS promoter inh	INS promoter inh cell count	PKD1 inh
CC(C)=CC/C=C1\CCC(C(=O)O)C(C(=O)O)C1 (centres undefined)	i	0.77	42	0.9	-22	209	-2
CN(C)c1nc(N)nc(CSc2nnnn2-c2ccc(C(=O)O)cc2)n1	i	1	99	-4.1	·	·	-4
C[C@@H]1NC(=O)[C@H](CCC(=O)O)NC(=O)c2cc([N+](=O)[O-])cc(F)c2NCCC[C@@H](C(N)=O)NC1=O	i	0.93	99	-1.3	-77	140	-13

(list continues)
SMILES	HSV replic up	HSV replic up primary fold	RGS16-Gao	GALR2 ag	INS promoter inh	INS promoter inh cell count	PKD1 inh
Cc1cc(C)nc(N2CCCC(C(=O)NCCc3ccccc3F)C2)n1 (centres undefined)	i	0.98	99	-2.2	-13	127	-16
COC(=O)c1cn(C(C)C(=O)NCc2ccco2)c2ccccc12 (centres undefined)	i	0.88	100	-0.5	·	·	-12
COc1cccc(CN2CCNC(=O)C2CC(=O)NCCc2nc(C)c(C)s2)c1OC (centres undefined)	i	0.99	107	·	52	127	-7
COc1ccc(NC(=O)c2ccc(S(=O)(=O)N3CCOCC3)cc2)c(OC)c1	i	0.9	102	-1.4	7	113	-9
